Assay outcomes (PubChem BioAssay)
Rango dissoc inh – inhibition of RanGTP-driven Rango-importin beta dissociation; O95149+P62826; Biochemical FRET Rango-importin beta, RanGTP-induced dissociation; Potency, µM (doses to about 46.1 µM), inactives show at the highest dose activity change, negative = inhibition; 340,000 compounds, 0.071% hits; AID 540253; active means falling FRET ratio curve, often poorly fitted, with flat reads before Ran was added; inconclusive means other falling curves, or compound fluorescence or quenching; inactive means flat or rising ratio curve;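 note: potency is the fitted concentration of half-maximal effect; % of control where 0% means no effect; nearly all actives have a fitted effect of over 45% in size; -100% = wells without RanGTP and RCC1; the record marks most hits as doubtful in a second field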
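Compounds preincubate 5 min with complex of recombinant Rango and importin beta in PBS with 1 mM DTT. Ran (0.6 uM) loaded with 2 mM GTP plus 0.2 uM RCC1 starts dissociation; FRET is recorded 45 min later.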
Rango complex inh – prevents formation of the Rango-importin beta complex | AID 540263 | Rango CFP/YFP FRET sensor + importin beta, 45 min | 340,000 compounds, 0.031% hits | Q14974 | Potency, µM (doses to about 92.2 µM), for inactives: at the highest dose inhibition of complex formation; active = rising FRET ratio curve, often small or poorly fitted; inconclusive = mostly compound fluorescence or quenching in the first reads; inactive = flat curves in all reads;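 note: potency is the fitted concentration of half-maximal effect; 0% = DMSO wells and 100% = buffer wells lacking importin beta; nearly all actives have a fitted effect of over 15% in size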
Target sequence (Q14974 whole entry, looked up): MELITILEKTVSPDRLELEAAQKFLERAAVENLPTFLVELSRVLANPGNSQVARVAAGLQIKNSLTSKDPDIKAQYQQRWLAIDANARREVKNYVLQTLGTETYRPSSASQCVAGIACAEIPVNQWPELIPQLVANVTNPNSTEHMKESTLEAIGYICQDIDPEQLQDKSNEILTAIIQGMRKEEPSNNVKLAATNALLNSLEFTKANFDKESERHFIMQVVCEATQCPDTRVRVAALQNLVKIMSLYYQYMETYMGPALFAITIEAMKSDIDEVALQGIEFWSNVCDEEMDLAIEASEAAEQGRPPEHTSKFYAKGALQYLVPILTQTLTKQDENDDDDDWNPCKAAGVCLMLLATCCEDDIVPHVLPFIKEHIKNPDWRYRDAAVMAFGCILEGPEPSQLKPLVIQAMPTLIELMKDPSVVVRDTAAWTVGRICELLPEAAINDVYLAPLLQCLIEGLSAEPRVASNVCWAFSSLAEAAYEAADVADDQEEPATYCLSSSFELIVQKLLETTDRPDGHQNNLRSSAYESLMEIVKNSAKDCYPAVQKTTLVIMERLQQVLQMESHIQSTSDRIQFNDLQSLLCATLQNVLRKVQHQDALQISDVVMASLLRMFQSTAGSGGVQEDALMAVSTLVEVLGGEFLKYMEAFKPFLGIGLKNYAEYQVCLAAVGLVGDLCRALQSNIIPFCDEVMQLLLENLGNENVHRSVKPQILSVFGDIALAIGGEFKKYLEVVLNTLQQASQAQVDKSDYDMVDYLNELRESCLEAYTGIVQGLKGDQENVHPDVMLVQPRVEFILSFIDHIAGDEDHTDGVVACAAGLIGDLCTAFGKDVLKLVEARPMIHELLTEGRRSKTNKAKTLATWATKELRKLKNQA
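Inhibition scored from the CFP 486 nm/YFP 530 nm FRET ratio 45 min after adding 0.125 microM importin beta to 50 nM Rango biosensor preincubated 5 min with compound (room temperature, PBS with DTT, Tween-20, BSA). No-importin wells as positive control.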
miR-21 reporter – raises the signal of a miR-21 reporter | HeLa miR-21 FLuc reporter, luciferase, 48 h | AID 2288 | Potency, µM (top dose mostly 38.3 µM), for the others: at the top dose reporter change, positive = more light | 340,000 tested, under 10 active; active = well fitted rising curve with a large enough effect; inconclusive = small, poorly fitted or top-dose-only effect; inactive = no such curve, though single readings can be large or run the other way;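 note: % of control where 0% means no effect; miR-21 action dims this reporter so a rising signal means less miR-21 action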
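HeLa cells endogenously expressing miR-21, stably carrying CMV-driven firefly luciferase with a downstream miR-21 binding site, 2000 cells/well. Titrations up to approximately 40 uM, 48 hours; luciferase luminescence read.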
GLA inh pH 4.5 – alpha-galactosidase A (human) inhibition, pH 4.5; activity change, negative = inhibition, % at 105 µM; purified enzyme, 4-MU-alpha-Gal fluorescence, pH 4.5; 230,000 tested, under 10 active; P06280; AID 1467; inconclusive = small, poorly fitted or top-dose-only inhibition, or a rising curve; inactive = flat fitted curve, though single readings scatter; no compound was filed as active;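 note: 0% = full activity with enzyme and -100% = basal without enzyme; dose as in the result columns while the protocol names 77 µM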
Starred values were filed as active, the others as inactive; ? = inconclusive; / = no result given; & = joins results of further samples; [ ] = another dose, or the depositor's remark. Not all compounds are listed; count on the stated rates, not on these rows.

nr	molecule	GLA inh pH 4.5	Rango dissoc inh
1	CCN(CC)CCCNC(=O)c1cc(-c2ccc3c(c2)OCO3)on1	/	36.0%
2	CC1CCCN(c2nc3c(c(=O)n(C)c(=O)n3C)n2CCSc2nc3ccccc3s2)C1 (stereo unspecified)	-13.3	-8.7%
3	O=C(CSc1nnc2ccccn12)NNC(=O)c1cccc(Cl)c1	/	2.9%
4	CCOc1ccccc1Nc1nc2ccccc2n1C(C)C	-7.7	1.9%
5	Cc1ccc(COc2cccc(/C=N/NC(=O)c3nnn(-c4nonc4N)c3C)c2)cc1	/	-11.0%
6	COc1cccc(C(=O)Nc2nnc(S(=O)(=O)N(C)c3ccccc3)s2)c1	/	16.8%
7	CCCOc1cccc(C2C(C(=O)c3ccco3)=C(O)C(=O)N2c2nnc(C)s2)c1 (stereo unspecified)	/	?
8	CCOC(=O)CSc1nnc(CSc2nc3sc4c(c3c(=O)[nH]2)CCC4)n1-c1ccccc1	-0.2	-0.8%
9	N=c1n(CCO)c2ccccc2n1Cc1ccccc1Cl	-2.3	27.5%
10	Cc1ccc(NC(=O)N(Cc2cccnc2)Cc2ccco2)cc1C	6.4	-3.7%
11	Cc1ccc(C(C(=O)NC2CCCC2)N(Cc2cccnc2)C(=O)c2snc(C(N)=O)c2N)o1 (stereo unspecified)	-6.8	22.5%
12	Cc1cc(N2CCN(S(=O)(=O)c3ccc(C)c(C)c3)CC2)c2ccccc2n1	0.6	3.6%
13	CCOc1ccccc1NC(=S)NC(=O)CCCOc1ccc(Cl)cc1Cl	-5.3	-6.6%
14	COC(=O)CSc1nnc(-c2ccc(S(=O)(=O)N3CCC(C)CC3)cc2)o1	-4.6	1.4%
15	CC(C)C[C@@H](C(=O)N[C@@H](C(=O)O)c1ccccc1)N1C(=O)N2CCc3c([nH]c4ccccc34)[C@@]2(C)C1=O	/	-26.5%

nr	Rango complex inh	miR-21 reporter
1	-1.5%	-15.6%
2	-1.5%	-4.0%
3	-0.3%	/
4	-4.8%	-5.6%
5	0.9%	-22.9%
6	1.4%	-18.5%
7	?	-4.1%
8	-3.5%	-1.0%
9	1.3%	5.7%
10	-2.8%	-7.8%
11	?	-0.8%
12	-1.0%	14.0%
13	1.3%	-7.7%
14	-0.3%	-1.0%
15	0.4%	-0.6%

A different layout for part of the listing above.
no.	GLA inh pH 4.5	Rango dissoc inh	Rango complex inh	miR-21 reporter	canonical_smiles
5	/	-11.0%	0.9%	-22.9%	Cc1ccc(COc2cccc(/C=N/NC(=O)c3nnn(-c4nonc4N)c3C)c2)cc1
6	/	16.8%	1.4%	-18.5%	COc1cccc(C(=O)Nc2nnc(S(=O)(=O)N(C)c3ccccc3)s2)c1
7	/	?	?	-4.1%	CCCOc1cccc(C2C(C(=O)c3ccco3)=C(O)C(=O)N2c2nnc(C)s2)c1 (stereo unspecified)
8	-0.2	-0.8%	-3.5%	-1.0%	CCOC(=O)CSc1nnc(CSc2nc3sc4c(c3c(=O)[nH]2)CCC4)n1-c1ccccc1
9	-2.3	27.5%	1.3%	5.7%	N=c1n(CCO)c2ccccc2n1Cc1ccccc1Cl
10	6.4	-3.7%	-2.8%	-7.8%	Cc1ccc(NC(=O)N(Cc2cccnc2)Cc2ccco2)cc1C
11	-6.8	22.5%	?	-0.8%	Cc1ccc(C(C(=O)NC2CCCC2)N(Cc2cccnc2)C(=O)c2snc(C(N)=O)c2N)o1 (stereo unspecified)
12	0.6	3.6%	-1.0%	14.0%	Cc1cc(N2CCN(S(=O)(=O)c3ccc(C)c(C)c3)CC2)c2ccccc2n1
13	-5.3	-6.6%	1.3%	-7.7%	CCOc1ccccc1NC(=S)NC(=O)CCCOc1ccc(Cl)cc1Cl
14	-4.6	1.4%	-0.3%	-1.0%	COC(=O)CSc1nnc(-c2ccc(S(=O)(=O)N3CCC(C)CC3)cc2)o1
15	/	-26.5%	0.4%	-0.6%	CC(C)C[C@@H](C(=O)N[C@@H](C(=O)O)c1ccccc1)N1C(=O)N2CCc3c([nH]c4ccccc34)[C@@]2(C)C1=O

Continuation:
nr	molecule	GLA inh pH 4.5	Rango dissoc inh
16	COc1ccc(CC(=O)NNC(=O)c2ccncc2)cc1	-0.7[21.1 µM]	-24.4%
17	CC(=O)C1=C(O)C(=O)N(c2cccnc2)C1c1ccc([N+](=O)[O-])cc1 (stereo unspecified)	2.4	/
18	Cn1c(-c2ccc(Cl)cc2)ccc(C#N)c1=O	-4.0	-11.7%
19	Cc1cc(Br)ccc1NC(=O)CNC(=O)Cn1ncc(Cl)c(Cl)c1=O	8.0	-3.6%
20	CN(c1ccc(OCC(=O)OCC(=O)NC2CCCC2)cc1)S(=O)(=O)c1ccc2ccccc2c1	-8.9	7.8%
21	CC(C)CNC(=O)COC(=O)c1cc(Cl)cc(Cl)c1N	19.6	0.0%
22	COc1ccc(N2CCN(C(=O)c3ccccc3N(C)S(=O)(=O)c3ccc(C)cc3)CC2)cc1	/	8.5%
23	Cn1cccc1-c1nc2ccc(NC(=O)c3cccs3)cc2[nH]1	-0.1	2.4%
24	O=C(O)CCCNC(=O)CC1S/C(=N/N=C/c2ccccc2O)NC1=O (stereo unspecified)	6.6	15.7%
25	O=C(N/N=C/c1cccc([N+](=O)[O-])c1)c1ccc(COc2ccccc2-c2ccccc2)cc1	6.7	0.4%
26	O=C(CSc1ccc(Cl)cc1)N1CCN(c2ncc(C(F)(F)F)cc2Cl)CC1	-10.9	-0.7%
27	Clc1ccccc1CN1CCN(c2ncccn2)CC1	/	-15.4%
28	COc1ccc(CNS(=O)(=O)c2cc3c4c(c2)CCN4C(=O)CC3)cc1	/	-6.2%
29	CC(C)(C)C(=O)Nc1ncccc1C(O)c1cccc(C(F)(F)F)c1 (stereo unspecified)	-1.1	-0.4%
30	CCOC(=O)C1CCCN(C(=O)c2ccc3c(c2)NC(=O)C(N2CCOCC2)S3)C1 (stereo unspecified)	-10.8	4.8%

nr	Rango complex inh	miR-21 reporter
16	-1.0%	1.0%
17	/	0.1%
18	-3.6%	-3.8%
19	2.9%	3.2%
20	-1.3%	2.7%
21	1.3%	-5.8%
22	-0.5%	5.8%
23	-1.1%	-15.7%
24	0.6%	-1.1%
25	-4.7%	-9.4%
26	2.2%	-7.1%
27	-2.2%	3.1%
28	-2.9%	-9.9%
29	2.9%	-12.4%
30	-3.6%	5.5%

Continued.
nr	molecule	GLA inh pH 4.5	Rango dissoc inh
31	O=C(c1ccc(Cl)cc1)N1C2C=CC(C2)C1(C(F)(F)F)C(F)(F)F (stereo unspecified)	-5.2	-1.1%
32	C=CCOC(=O)C1=C(C)NC(=O)NC1c1ccc(OCC)cc1 (stereo unspecified)	/	-6.6%
33	Cc1ccc2nc(-c3ccccc3)nn2c1	/	-13.6%
34	COc1ccc(Cl)cc1C(=O)NNC(=S)NC(=O)/C=C/c1ccco1	-4.1	13.2%
35	COc1ccccc1C1=NC(c2ccc(C)cc2)N=C1C (stereo unspecified)	2.9	9.9%
36	COc1ccc(C(C)=O)cc1COC(=O)c1cccnc1SC	4.4	0.9%
37	CCOC(=O)CNC(=O)CSc1nc2cccnc2n1Cc1ccccc1	-4.4	3.2%
38	CCCCCCOC(=O)CCc1c(C)nc(N)[nH]c1=O	-4.2	-4.4%
39	CC(=O)c1cc(CN2CCC(n3nccc3NC(=O)c3ccccc3C)CC2)cs1	/	-3.8%
40	C=CCOn1c(C)c(C(C)=O)c2c3no[n+]([O-])c3ccc21	1.6	34.4%
41	CCOc1ccc(C(=O)NCC(=O)NCCCn2nc(C)cc2C)cc1OCC	/	-0.9%
42	COc1ccccc1CNC(=O)COc1ccc(C)cc1	/	-4.9%
43	O=C(NCc1ccco1)/C(=C/c1ccco1)NC(=O)c1ccc(Br)o1	4.2	2.5%
44	CCCCN(Cc1cc2ccccc2[nH]c1=O)S(C)(=O)=O	-0.5	-10.1%
45	Cc1cc(NC(=O)C2CC2)ncc1NC(=O)C12CC3CC(CC(C3)C1)C2	5.4	-4.5%

nr	Rango complex inh	miR-21 reporter
31	5.6%	-4.2%
32	0.8%	2.4%
33	1.5%	/
34	-1.0%	-2.6%
35	2.9%	-44.3%
36	0.3%	-1.3%
37	1.0%	-2.8%
38	1.6%	-0.7%
39	0.6%	-2.7%
40	?	-3.6%
41	4.0%	-5.3%
42	-2.6%	-9.4%
43	-1.5%	1.2%
44	1.2%	-10.4%
45	0.2%	-27.6%

Carrying on:
nr	molecule	GLA inh pH 4.5	Rango dissoc inh
46	c1cncc(-c2nc3ccccc3[nH]2)c1	9.9&6.3	-17.4%
47	Cc1ccc(S(=O)(=O)N2CCC3(CC2)OCCN3S(=O)(=O)c2c(C)cc(C)cc2C)cc1	/	-13.5%
48	CN(C)c1ccc(CN(C(=O)c2ccccc2Br)C2CCS(=O)(=O)C2)cc1 (stereo unspecified)	/	-17.6%
49	C=CCNC(=O)c1c(CSc2ccccc2)noc1C(=O)NCc1ccccc1	7.4	17.6%
50	COc1cc2c3c(c1OC)-c1cc4c(cc1CC3(C#N)N(C(=O)c1ccccc1)CC2)OCO4 (stereo unspecified)	/	5.0%
51	O=C(C[n+]1cc(Br)cc2ccccc21)c1ccc(F)cc1	/	-0.6%
52	CCNC(=S)N1CCc2cc(OC)c(OC)cc2C1COc1ccccc1OC (stereo unspecified)	-6.2	0.3%
53	COc1ccc(-c2[nH]ncc2CN2CCC(C(=O)c3ccc(F)cc3)CC2)cc1	-7.6	2.8%
54	S=c1nc(Cc2ccc(Cl)cc2)[nH]c2ccccc12	-0.1	-0.6%
55	Cc1cc2c(cc1S(=O)(=O)N(C)Cc1ccccc1)n(C)c(=O)c(=O)n2C	/	0.6%
56	CCn1c(SCC(=O)NCc2ccco2)nnc1-c1ccncc1	-5.8	/
57	N#C/C(=C(/O)c1cccc(F)c1)c1nc2ccccc2s1	1.9	-18.6%
58	Cc1ccc(NC(=O)CNC(=O)c2ccccc2F)cc1Cl	-4.3	-18.8%
59	CC1(C)Cc2cccc(OCC(=O)OCC(=O)c3ccccc3)c2O1	/	-2.8%
60	O=C(NCCCN1CCCC1)c1ccc(CS(=O)(=O)c2ccc(Cl)cc2)o1	/	2.4%

nr	Rango complex inh	miR-21 reporter
46	1.6%	-14.4%&-18.9%
47	-1.9%	/
48	-0.2%	-10.4%
49	0.8%	8.2%
50	1.3%	/
51	1.1%	-8.4%
52	2.8%	-15.8%
53	-2.8%	5.4%
54	-1.7%	-4.6%
55	0.3%	3.2%
56	/	0.4%
57	-1.6%	-26.1%
58	-0.6%	-20.7%
59	1.0%	/
60	-3.2%	0.0%

(next part)
nr	molecule	GLA inh pH 4.5	Rango dissoc inh
61	O=C(c1ccc(F)cc1)c1cnc(Nc2ccccc2)s1	0.7	-2.7%
62	CC(C)CCNC(=O)C1CC(=O)N(C2CCCC2)C1 (stereo unspecified)	-15.7	2.1%
63	O=C1C2CCCN2C(c2ccccc2)N1c1nccs1 (stereo unspecified)	-11.7	-24.6%
64	CC(C)CC1Nc2ncnc(N3CCN(c4ccccn4)CC3)c2N(Cc2ccc(Br)cc2)C1=O (stereo unspecified)	/	-11.6%
65	OCCNCCOc1ccccc1F	-6.4	1.8%
66	O=C(Oc1ccc2[nH]cc(CCN3C(=O)c4ccccc4C3=O)c2c1)c1ccco1	-7.1	-1.3%
67	CC(=O)NS(=O)(=O)c1ccc(NC(=O)CC(C)c2ccccc2)cc1 (stereo unspecified)	4.0	-14.8%
68	COc1ccc(NC(=O)CCc2ccccc2)cc1S(=O)(=O)N1CCOCC1	/	5.8%

nr	Rango complex inh	miR-21 reporter
61	?	-47.8%
62	-2.0%	3.0%
63	-3.7%	-0.1%
64	-0.1%	/
65	0.2%	-10.7%
66	-1.3%	-34.6%
67	2.1%	-1.9%
68	-0.1%	/
